KCNQ2 inh – KCNQ2 potassium channel inhibitors, primary screen, cell-based, CHO-K1, FluxOR thallium flux, B-score (AID 2156). B-score at 10 µM. 20 min; stronger effect = lower value; only compounds with negative scores are shown here; some inactives read as strong as hits. actives 1.1% (n = 310,000). Potassium voltage-gated channel subfamily KQT member 2 (Rattus norvegicus), O88943;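 active = fluorescence ratio B-score at most minus 3 library SDs, with starting brightness B-score within 2 library SDs, cut at about -5.5 in these data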
Target sequence (O88943 whole entry, looked up): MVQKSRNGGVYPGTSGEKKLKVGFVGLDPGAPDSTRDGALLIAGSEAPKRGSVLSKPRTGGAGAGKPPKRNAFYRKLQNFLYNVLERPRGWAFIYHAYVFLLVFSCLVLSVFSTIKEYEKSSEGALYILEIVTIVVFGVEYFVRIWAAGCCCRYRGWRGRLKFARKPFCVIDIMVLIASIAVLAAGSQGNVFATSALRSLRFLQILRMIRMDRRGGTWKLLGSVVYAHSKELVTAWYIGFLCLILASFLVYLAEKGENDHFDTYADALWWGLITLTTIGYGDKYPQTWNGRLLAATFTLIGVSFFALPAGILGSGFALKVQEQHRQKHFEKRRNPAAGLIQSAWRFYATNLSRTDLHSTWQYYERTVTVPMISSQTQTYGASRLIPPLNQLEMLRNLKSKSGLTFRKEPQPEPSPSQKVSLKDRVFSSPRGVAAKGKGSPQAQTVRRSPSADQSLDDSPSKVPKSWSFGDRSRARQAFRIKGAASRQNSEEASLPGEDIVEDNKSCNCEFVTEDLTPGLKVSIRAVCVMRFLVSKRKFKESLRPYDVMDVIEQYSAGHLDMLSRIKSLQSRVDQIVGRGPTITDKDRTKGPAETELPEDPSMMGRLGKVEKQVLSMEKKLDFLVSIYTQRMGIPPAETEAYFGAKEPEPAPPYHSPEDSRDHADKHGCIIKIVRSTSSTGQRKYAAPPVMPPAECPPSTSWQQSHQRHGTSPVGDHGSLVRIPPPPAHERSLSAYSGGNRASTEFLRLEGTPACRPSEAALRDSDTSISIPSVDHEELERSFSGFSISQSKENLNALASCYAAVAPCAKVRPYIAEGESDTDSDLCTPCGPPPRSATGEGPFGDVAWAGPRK
KCNQ2 inh baseline – second read-out of KCNQ2 inh, no call of its own (marks repeat the call); B-score; measured here: initial fluorescence intensity artifact check;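 brightness before thallium and not channel activity; 0 = typical well and far values either way flag optical interference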
* = called active by the depositor; i = inactive.

Fields: KCNQ2 inh | KCNQ2 inh baseline
CSc1ccc(S(=O)(=O)NCc2ccc(Cl)cc2Cl)cc1
    i | 1.1
CCN1C=C(Cc2ccccc2C)C2=C(C1)C(c1ccccc1C)C(C#N)=C(N)O2 (configuration not stated)
    i | 0.05
Cc1cccc(C2=NNC(=O)C(c3ccc(Cl)cc3)C2)c1 (configuration not stated)
    i | 2.1
COc1ccc(CC(=O)Nc2nnc(-c3cccc([N+](=O)[O-])c3)s2)cc1
    i | 0.03
COCCN(C(=O)COC(=O)CSc1ccc(Cl)cc1)c1c(N)n(Cc2ccccc2)c(=O)[nH]c1=O
    i | -0.55
CC(=O)c1ccc(N2CCN(C(=O)C3CCN(S(=O)(=O)c4cccs4)CC3)CC2)cc1
    i | 0.19
CCOC(=O)c1c(C)[nH]c(C)c1S(=O)(=O)N(C)CC(=O)N1CCN(c2ccc(OC)cc2)CC1
    i | -0.45
CC(Oc1ccc2ccc(=O)oc2c1)C(=O)NC1CC(C)(C)NC(C)(C)C1 (configuration not stated)
    i | 1.1
CC1=CCC2C(=O)N(c3ccc(Br)cc3C)C(=O)C2C1 (configuration not stated)
    i | -2
CCCc1nc2c(s1)CCc1onc(-c3ccc(OC)cc3)c1-2
    i | -2.4
c1ccc(Nc2nc(NCC3CCCO3)c3ccccc3n2)cc1 (configuration not stated)
    i | 0.6
Cc1cccc(CN(CC(=O)N/N=C/c2cccs2)S(=O)(=O)c2ccc(Cl)cc2)c1
    i | -0.59
O=C(NCCc1cccc(C(F)(F)F)c1)C1CCC(=O)N(C2CC2)C1 (configuration not stated)
    i | 0.56
CCCCCCC1(C)NC(=S)N(c2ccccc2)N1 (configuration not stated)
    i | 0.01
O=C(CSc1ccc(-c2ccco2)nn1)NCCc1ccccc1
    i | 1.8
CCOc1ccc2nc(NC(=O)COc3ccc(N(C)S(=O)(=O)c4ccc(C)cc4)cc3)sc2c1
    i | -1.9
Cc1ccccc1NC(=S)N/N=C/C(C)c1ccccc1 (configuration not stated)
    i | 1.6
CS(=O)(=O)Nc1ccc(Cc2ccc(NS(C)(=O)=O)cc2)cc1
    i | -0.5
CCCC(=O)Nc1ccc(NC(=O)c2ccccc2OC)cn1
    i | 0.02
O=C(Nc1ccc2c(c1)OCCO2)c1cnccn1
    i | 0.52
CC(C)(C)NC(=O)NC(=O)CN1CCN(c2cccc(Cl)c2)CC1
    i | 0.91
O=C(COc1ncnc2ccccc12)N1CCN(S(=O)(=O)c2ccc(Cl)cc2)CC1
    i | 0.54
CC(=O)N1c2ccc(S(=O)(=O)N3CCC(C(=O)Nc4cccc(C)c4C)CC3)cc2CC1C (configuration not stated)
    i | -0.48
CC(NC(=O)c1ccc2ccccc2n1)c1ccc(Br)cc1 (configuration not stated)
    i | 0.48
CSc1cc(C)n(-c2ccccc2C)c(=S)c1C(C)=O
    i | 1.1
CC(=O)Nc1ccc(S(=O)(=O)NC(C)c2ccccc2)cc1 (configuration not stated)
    i | 0.57
CC1CCCC(NC(=O)CCn2c(=S)oc3ccccc32)C1C (configuration not stated)
    i | -1.4
O=C(NCc1ccccn1)c1cc(-c2ccc(-c3ccccc3)cc2)nc2ccccc12
    i | -0.11
O=C(N/N=C/c1cc([N+](=O)[O-])ccc1N1CCCCCC1)c1ccccn1
    i | 0.76
Cc1ccc(OC(=O)c2ccc3nc(C)sc3c2)cc1
    i | 1.1

The final two compounds of the part before lead into the next:
Fields: KCNQ2 inh | KCNQ2 inh baseline
O=C(N/N=C/c1cc([N+](=O)[O-])ccc1N1CCCCCC1)c1ccccn1
    i | 0.76
Cc1ccc(OC(=O)c2ccc3nc(C)sc3c2)cc1
    i | 1.1
O=C(CCC(=O)OCC(=O)c1ccccc1)Nc1cccc2cccnc12
    i | 0.08
CC(C)(C)C(=O)Cn1c(NCCCO)nc2ccccc21
    i | 2.3
COc1cc(NC(=O)CN2C(=O)NC(C)(c3ccc(OC(F)F)cc3)C2=O)cc(OC)c1OC (configuration not stated)
    i | 1
Cc1[nH]nc2c1C(c1cccs1)C(C#N)=C(N)O2 (configuration not stated)
    i | -0.85
CC(=O)Nc1nc(C)c(CCCOc2ccc([N+](=O)[O-])cc2)c(=O)[nH]1
    i | 1.4
CCOC(=O)CNC(=O)COc1coc(CN2CCN(c3ccc(F)cc3)CC2)cc1=O
    i | 0.41
COC(=O)CCn1nnc(-c2ccc(C)cc2)n1
    i | -0.4
CCOc1cc(/C=N/NC(=O)c2cccc([N+](=O)[O-])c2)ccc1OS(=O)(=O)c1ccccc1
    i | 1.3
COc1ccc(-c2sc(Nc3ccc(F)c(F)c3F)nc2CCC(=O)NN)cc1
    i | 2.9
O=C(NC(NC(=S)Nc1cc(Cl)ccc1Cl)C(Cl)(Cl)Cl)c1ccco1 (configuration not stated)
    i | -0.77
O=C1NC(=Nc2ccccc2)S/C1=C\c1cccs1
    i | 0.84
Cc1ccc(NC(=S)N2CCn3cccc3C2c2cccnc2)cc1 (configuration not stated)
    i | 2.8
O=C(CSc1ccc2nnc(CCNC(=O)c3ccccc3)n2n1)NCc1ccco1
    i | -1
CC1CCN(S(=O)(=O)c2ccc3c(c2)c(=O)c(C(=O)N2CCCCC2)cn3C)CC1
    i | 0.36
CC1=NN(c2ccccc2)C(=O)C1C=Nc1ccc(N(C)C)cc1 (configuration not stated)
    i | 1
COc1ccc(NC(=O)/C(C#N)=C\c2ccc(Br)o2)cc1
    i | 0.89
CS(=O)(=O)N(CC(=O)NCCc1ccccc1)c1cccc([N+](=O)[O-])c1
    i | 0.86
Cc1[nH]n(-c2ccccc2)c(=O)c1C1(C(F)(F)F)C(=O)N(c2ccc(F)cc2)C2=C1C(=O)CC(C)(C)C2 (configuration not stated)
    i | -0.05
CC(C(=O)OCC(=O)c1ccccc1)N1C(=O)c2ccccc2C1=O (configuration not stated)
    i | -0.1
Cc1cc(NCc2ccccn2)ccc1Br
    i | 0.36
CCNC(=S)Nc1ccc(Cc2ccncc2)cc1
    i | 0.63
CC1(C)Oc2ccc3ccc(=O)oc3c2/C(=C/Nc2ccccc2)C1=O
    i | -1.9
CC1=Nn2c(nnc2-c2cc(C)[nH]n2)SC1
    i | 2.8
COc1cc2c(cc1OC)CN(C(=S)Nc1cccc(Cl)c1C)CC2
    i | 0.33
S=C(NCCc1ccc(Cl)cc1)NC1CC1
    i | 2.2
CCc1cc(C(=O)OC)c(NC(=O)C2CC(=O)NN2Cc2ccccc2)s1 (configuration not stated)
    -5.9* | -0.04*
Cc1nnc(NC(=O)CSc2nnc(Cc3ccccc3)n2Cc2ccccc2)s1
    i | -0.51
COC(=O)C1=C(C)N=C2SC(C#N)=C(N)N2C1c1cc(OC)c(OC)c(OC)c1 (configuration not stated)
    i | 1.8
CCCn1nnc(NC(=O)c2cccc(Cl)c2)n1
    i | 0.41
O=C(OCc1cn(-c2ccc(Cl)c(Cl)c2)nn1)c1ccccc1Cl
    i | -0.7
CCNC(=S)N(Cc1cc2cccc(C)c2[nH]c1=O)C1CCCC1
    i | -0.33
COc1cc(NC(=S)NCCc2ccccc2)c(OC)cc1NC(=O)C(C)C
    -5.8* | 0.19*
CCC(C)OC(=O)C(C)Oc1ccc(-c2ccccc2)cc1 (configuration not stated)
    i | -0.51
CCOC(=O)C1(Cc2cccc(OC)c2)CCN(C/C=C/c2ccccc2)CC1
    i | -0.86
Cc1cccc(-c2oc3ccccc3c2C#CCCCCO)c1
    i | 0.41
Cc1ccccc1OC1CCN(C(=O)c2cc(COc3ccccc3)on2)CC1
    i | -0.06
CCCCn1c(SCC(=O)N2c3ccccc3CCc3ccccc32)nc2c1c(=O)n(C)c(=O)n2C
    i | 0.38
Cc1ccc(N(CC(=O)NC2CCCC2)C(=O)CCC(=O)Nc2nc(C)cs2)cc1
    i | 1.2
CCCN(CCC)CCCNC(=O)Cn1cnc2sc(C)c(S(=O)(=O)N3CCOCC3)c2c1=O
    i | 1.1
CNC(=S)NC1CC2CCCC(C1)N2Cc1ccco1 (configuration not stated)
    i | -0.92
COCCOCCn1c(/C=C/c2ccccc2)nc2ccccc21
    i | 0.58
CCOC(=O)C1CCN(C(=O)COC(=O)c2cc([N+](=O)[O-])ccc2N2CCOCC2)CC1
    i | -0.01
CC1=C(C(N)=O)S(=O)(=O)c2ccccc21
    i | 1.4
COc1cccc(-c2csc(N3CCN(CC(=O)NNC(=O)c4ccco4)CC3)n2)c1
    i | -1.3
COC(=O)C1=C(C(=O)OC)[C@@H]2N(C)c3ccccc3[C@@]23C[C@@H](C(=O)OC)N(C(=O)c2cccs2)C3=N1
    i | -0.21
O=C(CN1C(=O)C2C3C=CC(C3)C2C1=O)NC1CCCc2ccccc21 (configuration not stated)
    i | 1.2
N#Cc1ccccc1COc1cccc2c1CCCC2O (configuration not stated)
    i | -0.24
Cc1ccc(NC(=O)CN(C)C(=O)COC(=O)COc2ccc(C#N)cc2)cc1
    i | -0.22
CC1(C)CC(=O)C=C(Nc2ccccc2)C1
    i | 0.3
CCC(C)C(=O)Nc1ccc(OC)cc1OC (configuration not stated)
    i | 0.65
Cc1cc(NC(=O)CN2C(=O)[C@@H]3[C@H](C2=O)[C@@H]2C[C@H]3C(Br)C2Br)no1 (some centres not stated)
    i | 1.5
COc1ccc(CCC(C)Nc2cccc(C)c2)cc1 (configuration not stated)
    i | 2.5
CCOC(=O)C1CCCN(C(=O)c2cc3ncc(Br)cn3n2)C1 (configuration not stated)
    i | 0.64
CC(c1ccc(F)cc1)n1cc(C(=O)NCCN(C)C)nn1 (configuration not stated)
    i | 0.99
CC(=O)Nc1ccc(S(=O)(=O)Nc2nnc(CC(C)(C)C)s2)cc1
    i | -0.88
O=S(=O)(NCC1CCCO1)c1ccc(S(=O)(=O)N(Cc2ccc(F)cc2)C2CCCCC2)cc1 (configuration not stated)
    i | 0.81
O=C(Cc1cccs1)Nc1cccc(-c2ccc3nncn3n2)c1
    i | -0.23
COc1ccc(-n2c(C(C)n3nc(C)c([N+](=O)[O-])c3C)n[nH]c2=S)cc1 (configuration not stated)
    i | 0.54
Cc1nc(N2CCCCC2)sc1C(=O)c1ccc(SCCO)c([N+](=O)[O-])c1
    i | 0.69
CCc1cc(C(=O)N/N=C/c2ccc(O)cc2O)c2ccccc2n1
    i | -0.35

Carrying on:
Fields: KCNQ2 inh | KCNQ2 inh baseline
CC(C)CCOc1cccc(OCC(=O)Nc2ccncc2)c1
    i | -0.47
CCOC(=O)c1cnn(-c2ccccc2)c1-n1cccc1C(=O)C(=O)Nc1ccccc1
    i | 0.65
CN(Cc1ccno1)C(=O)CC1C(=O)NCCN1CC(c1ccccc1)c1ccccc1 (configuration not stated)
    i | 0.37
COc1ccc(CC(=O)NCCc2ccc(OC)c(OC)c2)cc1
    i | 0.86
O=C(N/C(=C\c1ccc(Br)cc1)C(=O)N1CCCC1)c1ccccc1F
    i | 3.7
Cc1cccc(NC(=O)CN(c2ccc(C(C)C)cc2)S(=O)(=O)c2c(C)nn(C)c2C)n1
    i | -0.07
O=C(c1cc2cc(F)ccc2[nH]1)N1CCC(Cc2ccccc2)CC1
    i | -0.92
CN(C)c1ccc(/C=N\Nc2ccccn2)cc1
    i | -1.3
COc1ccc(C(CCNC(C)c2ccccc2)c2ccc(F)cc2)cc1 (configuration not stated)
    i | 0.03
COCCn1c(SCC(=O)c2cc(C)n(C)c2C)nc2ccccc2c1=O
    i | 0.71
Cc1ccc(C(=O)NCCSc2ccccc2)cc1S(=O)(=O)Nc1ccccc1
    i | 0.09
O=C(COc1cccnc1[N+](=O)[O-])N1CCN(S(=O)(=O)c2ccc3ccccc3c2)CC1
    i | 0.67
O=C(CSc1nc2ccccc2s1)Nc1ccc2c(c1)OCO2
    i | 0.64
CCOC(=O)C1CCN(Cc2cccc(Oc3ccccc3)c2)CC1
    i | -0.6
COC(=O)c1ccccc1NC(=O)CN1C(=O)C2CCCN2c2ncc(Cl)cc21 (configuration not stated)
    i | -0.43
COc1ccc(NC(=O)C2(c3ccc(NC(=O)c4ccc(OC)c(OC)c4)cc3)CCCC2)cc1
    i | 2.2
Cc1cccc(OCC(=O)Nc2ccccc2N2CCN(C(=O)C(C)C)CC2)c1C
    -5.8* | 1.6*
COc1cccc(C(=O)NCC(=O)OCC(=O)Nc2ncc(Cl)cc2Cl)c1
    i | 2.9
Cc1cc(C)c2oc(C(=O)N(Cc3cccs3)C3CCS(=O)(=O)C3)cc(=O)c2c1 (configuration not stated)
    i | 1

By substructure: the compounds so far containing a Cl atom (13)
Fields: KCNQ2 inh | KCNQ2 inh baseline
CSc1ccc(S(=O)(=O)NCc2ccc(Cl)cc2Cl)cc1
    i | 1.1
Cc1cccc(C2=NNC(=O)C(c3ccc(Cl)cc3)C2)c1 (configuration not stated)
    i | 2.1
COCCN(C(=O)COC(=O)CSc1ccc(Cl)cc1)c1c(N)n(Cc2ccccc2)c(=O)[nH]c1=O
    i | -0.55
Cc1cccc(CN(CC(=O)N/N=C/c2cccs2)S(=O)(=O)c2ccc(Cl)cc2)c1
    i | -0.59
CC(C)(C)NC(=O)NC(=O)CN1CCN(c2cccc(Cl)c2)CC1
    i | 0.91
O=C(COc1ncnc2ccccc12)N1CCN(S(=O)(=O)c2ccc(Cl)cc2)CC1
    i | 0.54
O=C(NC(NC(=S)Nc1cc(Cl)ccc1Cl)C(Cl)(Cl)Cl)c1ccco1 (configuration not stated)
    i | -0.77
COc1cc2c(cc1OC)CN(C(=S)Nc1cccc(Cl)c1C)CC2
    i | 0.33
S=C(NCCc1ccc(Cl)cc1)NC1CC1
    i | 2.2
CCCn1nnc(NC(=O)c2cccc(Cl)c2)n1
    i | 0.41
O=C(OCc1cn(-c2ccc(Cl)c(Cl)c2)nn1)c1ccccc1Cl
    i | -0.7
COC(=O)c1ccccc1NC(=O)CN1C(=O)C2CCCN2c2ncc(Cl)cc21 (configuration not stated)
    i | -0.43
COc1cccc(C(=O)NCC(=O)OCC(=O)Nc2ncc(Cl)cc2Cl)c1
    i | 2.9

Source: PubChem

The list is partial, so the mix of outcomes need not match the whole.
